UCH37 inh: inhibitors of human deubiquitinating enzyme UCH37. Q9Y5K5. purified proteasome/UCH37, Ub-AMC cleavage fluorescence. inhibition, % (no concentration beside the values). 330,000 tested, 0.33% active;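 active = mean of two replicates above 20%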;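 also: 0% = compound-free wells with enzyme and 100% = wells lacking proteasome; stock transfer was 100 nL into about 20 µL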
Target sequence (Q9Y5K5 whole entry, looked up): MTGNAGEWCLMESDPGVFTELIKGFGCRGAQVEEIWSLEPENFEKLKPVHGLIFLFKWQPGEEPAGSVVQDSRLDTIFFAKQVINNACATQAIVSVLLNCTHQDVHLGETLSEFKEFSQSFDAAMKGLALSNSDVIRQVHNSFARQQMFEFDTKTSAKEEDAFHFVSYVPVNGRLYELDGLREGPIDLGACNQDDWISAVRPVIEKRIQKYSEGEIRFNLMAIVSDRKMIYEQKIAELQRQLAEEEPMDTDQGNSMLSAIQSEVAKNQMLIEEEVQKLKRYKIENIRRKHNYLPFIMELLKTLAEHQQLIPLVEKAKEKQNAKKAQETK
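Reagent: Ub-AMC substrate; assay system: Proteasome-associated human UCH37 deubiquitinase; controls: no-proteasome and no-compound wells; read-out: % inhibition of Ub-AMC cleavage fluorescence; timing: 30 min preincubation with enzyme, 25 min cleavage at room temperature; signal: AMC fluorescence from Ub-AMC cleavage, excitation 355 nm, emission 460 nm; buffer or medium: Tris-HCl pH 7.4 plus ovalbumin, ATP-MgCl2, DTT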
Vif TR-FRET: HIV-1 Vif–A3G interaction blockers – biochemical, TR-FRET, GST-Vif 1-94, biotin-A3G peptide, dose response retest, primary screen (AID 1117319). TR-FRET GST-Vif / biotin-A3G peptide binding; higher % means a stronger effect; test concentration not given here; strong numbers were not always called active. inhibition, %; hits with a dose series show IC50 in µM. 260,000 tested, 0.57% active;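 active = above the screen mean plus three standard deviations and confirmed in dose response; inconclusive = results disagree or hit not tested in dose response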;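 also: Vif residues 1-94 fused to GST binding biotinylated APOBEC3G peptide 110-148; 0% = full assay without inhibitor and 100% = GST in place of GST-Vif; retest series ran down from 100 µM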
MLL AF4-AF9 inh: inhibitors of human MLL-AF4/AF9 interaction | AID 651704 | 350,000 tested, 0.47% active | inhibition, % at 10 µM | AlphaScreen, biotin-AF4 peptide binding to FLAG-AF9;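 active = every replicate reaching a set inhibition limit, whatever the replicate mean, cut at about 25% in these data; inconclusive = mean inhibition reaches that limit but some replicates miss it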;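 also: 0% = plate neutral control median and 100% = total signal loss; the record names both 10 and 1 µM as test concentration; the first replicate is given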
FGF22 binding: shifts melting point of recombinant human FGF22 | Q9HCT0 | recombinant FGF22 thermal shift, SYPRO orange fluorescence; percent of sucrose octasulfate shift, DMSO zero | calls only at 9.99 µM | 340,000 tested, 1.5% active | AID 651658;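 active = melting point raised past a set limit in the mean and every replicate; inconclusive = no clear call; three in four hits are not shown here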
Target sequence (Q9HCT0 whole entry, looked up): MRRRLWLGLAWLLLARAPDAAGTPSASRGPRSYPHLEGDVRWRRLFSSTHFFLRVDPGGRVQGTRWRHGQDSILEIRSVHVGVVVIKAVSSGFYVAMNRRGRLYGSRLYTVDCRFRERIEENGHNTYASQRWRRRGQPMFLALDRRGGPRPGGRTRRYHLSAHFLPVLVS
E coli growth: inhibitors of Escherichia coli growth; OD600, 23 h; stronger effect = lower value; OD600 absorbance (test concentration not listed); 330,000 tested, 0.21% active;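 active = OD600 absorbance below the run mean of sample wells minus 3.6 SD, in any replicate, cut at about 0.56 in these data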;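 also: stock transfer was 300 nL into about 60 µL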
RanGTP-Imp inh: disruptors of Ran-importin-beta complex formation – biochemical, FRET, CFP-Ran, YFP-importin-beta, homogeneous, primary screen. cell-free CFP-Ran/YFP-importin-beta FRET ratio. inhibition, % (no concentration beside the values). 300,000 tested, 1.1% active;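 active = most replicates above 15%; inconclusive = exactly half above 15%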;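 also: 0% = DMSO wells and 100% = Ran loaded with GDP instead of GTP; wells of about 40 µL received 100 nL stock; the first replicate is given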
HNF4A DNA FP: change in binding of human HNF4 alpha to DNA; P41235; HNF4a-FITC DNA binding, fluorescence polarization, 1 h; activity change, % at 10 µM; 360,000 tested, 0.3% active; in the data active = activity change above about 30%, passing the limit was not always enough;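 also: controls were the assay level and a saturating level of protein; the project sought stronger binding though the title names inhibitors; some compounds called inactive have numbers as strong as hits; positive values seem to mean higher polarization but the record does not say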
Target sequence (P41235 whole entry, looked up): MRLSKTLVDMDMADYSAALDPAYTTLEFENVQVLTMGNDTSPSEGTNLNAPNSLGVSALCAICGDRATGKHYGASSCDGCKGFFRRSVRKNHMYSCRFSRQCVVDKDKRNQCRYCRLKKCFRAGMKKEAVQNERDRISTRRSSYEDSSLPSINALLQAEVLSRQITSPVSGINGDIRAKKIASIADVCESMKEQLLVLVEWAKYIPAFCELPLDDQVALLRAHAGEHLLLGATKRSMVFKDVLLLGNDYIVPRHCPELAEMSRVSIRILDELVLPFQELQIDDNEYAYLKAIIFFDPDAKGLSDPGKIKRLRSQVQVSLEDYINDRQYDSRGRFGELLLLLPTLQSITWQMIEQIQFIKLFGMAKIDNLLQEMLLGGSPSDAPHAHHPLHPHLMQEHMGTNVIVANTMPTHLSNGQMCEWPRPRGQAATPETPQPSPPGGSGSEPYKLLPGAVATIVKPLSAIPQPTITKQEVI
* hit, by the source's call; & = joins results of further samples. An excerpt, so the mix of outcomes need not match the whole.

O=C(NCCc1csc(-c2ccccc2)n1)c1c(F)cccc1F was read as UCH37 inh 2.2, Vif TR-FRET -5.8%, MLL AF4-AF9 inh -4.8, FGF22 binding inactive, E coli growth 0.75, RanGTP-Imp inh -3.0 and HNF4A DNA FP 1.4.
`CCCCN(C)CCCNC(=O)c1ccc2c(c1)N(CC)C(=O)c1ccccc1S2=O` (stereo unspecified) gave UCH37 inh 0.8, Vif TR-FRET 8.0%, MLL AF4-AF9 inh -14.0, FGF22 binding inactive, E coli growth 0.64, RanGTP-Imp inh -3.8 and HNF4A DNA FP -0.9.
For CC(C)(C)N(NC(=O)OCc1ccccc1)C(=O)c1ccccc1Cl the results were UCH37 inh 1.3, Vif TR-FRET 5.4%, MLL AF4-AF9 inh 1.6, FGF22 binding inactive, E coli growth 0.7, RanGTP-Imp inh 0.7 and HNF4A DNA FP -0.8.
COn1c(-c2ccc(Cl)cc2Cl)nc2ncccc21 was read as UCH37 inh 1.3, MLL AF4-AF9 inh -0.4, FGF22 binding inactive, E coli growth 0.702, RanGTP-Imp inh 0.4 and HNF4A DNA FP 2.3.
`CCNC(=O)C1(C)CCN(C(=O)c2ccc(C#N)cc2)C1` (stereo unspecified) gave MLL AF4-AF9 inh -2.8, FGF22 binding inactive and HNF4A DNA FP -2.2.
For Cn1c(-c2sc(=S)n(-c3ccccc3)c2N)nc2ccccc21 the results were UCH37 inh -1.9, Vif TR-FRET -7.4%, E coli growth 0.782, RanGTP-Imp inh 8.1 and HNF4A DNA FP -0.1.
Screening Cn1ncc(N=Cc2ccccc2O)c1C(=O)N1CCOCC1 returned UCH37 inh 7.8, Vif TR-FRET 0.4%, E coli growth 0.662, RanGTP-Imp inh -1.5 and HNF4A DNA FP -3.4.
Cc1nc2nc(SCC(=O)c3ccccc3)[nH]c2cc1Br was read as UCH37 inh 4.1, Vif TR-FRET -22.9%, MLL AF4-AF9 inh -2.4, FGF22 binding inactive, E coli growth 0.726, RanGTP-Imp inh 6.4 and HNF4A DNA FP -1.7.
Cc1cccc(CN(C)C[C@H]2OCc3cnnn3CCCC(=O)N([C@H](C)CO)C[C@@H]2C)c1 was read as Vif TR-FRET -6.7%, MLL AF4-AF9 inh -2.3&0.0, FGF22 binding inactive and HNF4A DNA FP 2.6.
For CC(=O)c1ccc(NC(=S)Nc2ccc(N3CCOCC3)cc2)cc1 the results were UCH37 inh 2.5, Vif TR-FRET inconclusive, MLL AF4-AF9 inh 5.2, FGF22 binding inactive, E coli growth 0.719, RanGTP-Imp inh -0.5 and HNF4A DNA FP 0.8.
COc1ccccc1N1C(=O)C(Cl)=C(Nc2ccccc2O)C1=O was read as Vif TR-FRET 14.9%, RanGTP-Imp inh 1.0 and HNF4A DNA FP 9.8.
CCC(=O)N1CCCC(C)(C(=O)Nc2ccc(C)c(C)c2)C1 (stereo unspecified) was read as MLL AF4-AF9 inh 2.5, FGF22 binding inactive and HNF4A DNA FP 0.1.

Molecules from the list above containing a Cl atom:
For CC(C)(C)N(NC(=O)OCc1ccccc1)C(=O)c1ccccc1Cl the results were UCH37 inh 1.3, Vif TR-FRET 5.4%, MLL AF4-AF9 inh 1.6, FGF22 binding inactive, E coli growth 0.7, RanGTP-Imp inh 0.7 and HNF4A DNA FP -0.8.
COn1c(-c2ccc(Cl)cc2Cl)nc2ncccc21 was read as UCH37 inh 1.3, MLL AF4-AF9 inh -0.4, FGF22 binding inactive, E coli growth 0.702, RanGTP-Imp inh 0.4 and HNF4A DNA FP 2.3.
COc1ccccc1N1C(=O)C(Cl)=C(Nc2ccccc2O)C1=O was read as Vif TR-FRET 14.9%, RanGTP-Imp inh 1.0 and HNF4A DNA FP 9.8.

The list goes on.
`O=C(CN1CCN(c2ccc(F)cc2)CC1)Nc1ccccc1` gave UCH37 inh 0.7, MLL AF4-AF9 inh 6.3, FGF22 binding inactive, E coli growth 0.673, RanGTP-Imp inh 5.8 and HNF4A DNA FP -0.4.
Screening Cc1ccc(Nc2nc(N)nc(CC#N)n2)cc1 returned UCH37 inh 1.7, Vif TR-FRET 3.5%, E coli growth 0.658, RanGTP-Imp inh 24.5* and HNF4A DNA FP 0.3.
Screening CCN(CC)C(=O)C1CCCN(C/C(C)=C/c2ccccc2)C1 (stereo unspecified) returned UCH37 inh 4.3, Vif TR-FRET 26.2%, MLL AF4-AF9 inh -13.5, FGF22 binding inactive, E coli growth 0.667, RanGTP-Imp inh -2.4 and HNF4A DNA FP -4.0.
`CC(NC(=O)c1ccc(OC2CCN(Cc3ccccn3)CC2)cc1)c1ccccc1` (stereo unspecified) gave UCH37 inh 4.7, Vif TR-FRET -0.8%, MLL AF4-AF9 inh 2.4, FGF22 binding inactive, E coli growth 0.677, RanGTP-Imp inh 0.0 and HNF4A DNA FP 0.6.
`COc1ccc(CCN2CNc3c(c(=O)n(C)c(=O)n3C)C2)cc1` gave UCH37 inh 0.2, Vif TR-FRET 3.5%, E coli growth 0.665, RanGTP-Imp inh 3.5 and HNF4A DNA FP -3.0.
Cc1nn(-c2ccccc2Cl)c(Cl)c1/C=N/Nc1nc2ccccc2s1 was read as Vif TR-FRET 11.6%, RanGTP-Imp inh -0.2 and HNF4A DNA FP -0.3.
Screening Cc1ccc(C)c(-n2c(SCC(=O)NCC3CCCO3)nnc2-c2ccoc2C)c1 (stereo unspecified) returned UCH37 inh -0.7, Vif TR-FRET 1.9%, E coli growth 0.729, RanGTP-Imp inh 1.7 and HNF4A DNA FP 0.4.
CCOC(=O)Cn1c(S(=O)(=O)Cc2cccc(F)c2)nc(-c2ccccc2)c1-c1ccccc1 was read as UCH37 inh -1.2, Vif TR-FRET 0.0%, E coli growth 0.701, RanGTP-Imp inh 3.5 and HNF4A DNA FP -7.5.
Screening Cc1c2cnn(CC(=O)Nc3cccc(C(F)(F)F)c3)c(=O)c2c(C)n1Cc1ccccc1F returned UCH37 inh -0.6, E coli growth 0.659, RanGTP-Imp inh 1.3 and HNF4A DNA FP 2.5.
COc1ccc(CC(=O)OCC(=O)c2ccc(OC)c(OC)c2)cc1 was read as UCH37 inh 2.1, Vif TR-FRET -11.0%, MLL AF4-AF9 inh 0.9, FGF22 binding inactive, E coli growth 0.674 and HNF4A DNA FP 0.0.
`O=C(CCNC(=O)c1ccccc1)Nc1ccc(Cl)c(S(=O)(=O)N2CCCCC2)c1` gave UCH37 inh 4.9, Vif TR-FRET 0.9%, MLL AF4-AF9 inh 2.9, FGF22 binding inactive, E coli growth 0.686 and HNF4A DNA FP -2.0.
`O=C(N/N=C/c1ccccn1)c1cc(-c2ccc(Cl)s2)[nH]n1` gave MLL AF4-AF9 inh 0.0, FGF22 binding inactive, RanGTP-Imp inh 6.5 and HNF4A DNA FP -2.1.
Screening Cc1ccc(C(C(=O)NCc2ccco2)N(Cc2ccco2)C(=O)CNC(=O)c2ccco2)cc1 (stereo unspecified) returned UCH37 inh -1.4, Vif TR-FRET 2.8%, E coli growth 0.705, RanGTP-Imp inh 0.3 and HNF4A DNA FP 1.1.
For O=C(O)Cc1coc2cc3c(cc12)CCC3 the results were UCH37 inh 0.6, MLL AF4-AF9 inh 0.3, FGF22 binding inactive, E coli growth 0.702, RanGTP-Imp inh -1.2 and HNF4A DNA FP -2.1.
`CCN(C(=O)CSc1nnc(-c2ccco2)n1Cc1ccccc1)C1CCS(=O)(=O)C1` (stereo unspecified) gave UCH37 inh 1.4, MLL AF4-AF9 inh -11.7, FGF22 binding inactive, E coli growth 0.651 and HNF4A DNA FP 3.5.
Screening O=C(O)COc1ccc(=O)n(-c2ccccc2)n1 returned UCH37 inh 9.3, Vif TR-FRET inconclusive, E coli growth 0.715, RanGTP-Imp inh 3.8 and HNF4A DNA FP -0.9.
For CCOC(=O)c1sc(=S)n(CC)c1NC(=O)c1ccccc1 the results were UCH37 inh 7.7, Vif TR-FRET 1.9%, MLL AF4-AF9 inh 0.8, FGF22 binding inactive, E coli growth 0.673, RanGTP-Imp inh 0.7 and HNF4A DNA FP 0.2.
Screening O=C(Nc1ccc(Cl)cn1)c1cccc2c(Br)cccc12 returned UCH37 inh 5.1, Vif TR-FRET -9.5%, MLL AF4-AF9 inh -20.7, FGF22 binding inactive, E coli growth 0.691, RanGTP-Imp inh 2.3 and HNF4A DNA FP -0.4.
`NC(=O)CN1N=C(c2cc(Cl)sc2Cl)CSC1=O` gave UCH37 inh 2.1, Vif TR-FRET -3.1%, E coli growth 0.72, RanGTP-Imp inh 2.4 and HNF4A DNA FP 1.0.
C=C1CC2C3CC[C@@]4(OCOC45COCO5)[C@@]3(C)C(O)CC2[C@@]2(C)CCC(=O)C=C12 (stereo partly specified) was read as UCH37 inh 3.3, Vif TR-FRET 2.3%, E coli growth 0.681, RanGTP-Imp inh 2.9 and HNF4A DNA FP -0.2.
Screening N#Cc1c(SCC(N)=O)nc2c(c1-c1ccc(O)cc1)CCCC2 returned UCH37 inh 0.1, Vif TR-FRET -47.8%, MLL AF4-AF9 inh -2.3, FGF22 binding inactive, E coli growth 0.69, RanGTP-Imp inh -0.6 and HNF4A DNA FP 0.6.
Screening O=C(CNC(=O)c1ccccc1F)NCCOc1cccc(Cl)c1Cl returned UCH37 inh 1.8, E coli growth 0.676, RanGTP-Imp inh 3.6 and HNF4A DNA FP 1.3.
`COC(=O)[C@]12CCCCC=C1N(CCC1=CCCCC1)C(=O)[C@H](CC(=O)NCCCN1CCCC1=O)C2` gave MLL AF4-AF9 inh -3.9, FGF22 binding inactive and HNF4A DNA FP 2.0.
O=C(NC1CCCC1)C1CCC(=O)N1C1CCCCC1 (stereo unspecified) was read as UCH37 inh 1.4, Vif TR-FRET -0.8%, MLL AF4-AF9 inh -1.8, FGF22 binding inactive, E coli growth 0.72, RanGTP-Imp inh 1.8 and HNF4A DNA FP -2.5.
For Cc1cc(NC(=O)COC(=O)CCCOc2ccc(Cl)cc2C)no1 the results were UCH37 inh 1.6, Vif TR-FRET 8.5%, E coli growth 0.707, RanGTP-Imp inh 5.3 and HNF4A DNA FP -3.0.
`COc1ccc(N2C(=O)C(CC(N)=O)N(NC(=O)CCc3ccccc3)C2=O)cc1` (stereo unspecified) gave UCH37 inh 5.6, Vif TR-FRET 0.7%, MLL AF4-AF9 inh 1.5, FGF22 binding inactive, E coli growth 0.719, RanGTP-Imp inh 1.1 and HNF4A DNA FP -1.2.
`Cc1cc(=O)oc2c3c(cc(OCC(=O)N[C@@H](CC(C)C)C(=O)O)c12)OC(C)(C)CC3` gave UCH37 inh inactive, Vif TR-FRET -2.6%, MLL AF4-AF9 inh -1.0, FGF22 binding inactive, E coli growth 0.7, RanGTP-Imp inh 0.6 and HNF4A DNA FP -1.3.
O=C(/C=C/c1ccccc1)NC(=S)NNC(=O)c1cnccn1 was read as MLL AF4-AF9 inh -1.9, FGF22 binding inactive, RanGTP-Imp inh 3.0 and HNF4A DNA FP 4.2.
COCCn1c(SCC(=O)c2ccc(F)cc2)nnc1C(C)C was read as UCH37 inh 1.7, Vif TR-FRET inconclusive, E coli growth 0.741, RanGTP-Imp inh -2.5 and HNF4A DNA FP 0.5.
Screening CC(C)OC(=O)CC(=O)CSc1nc2c(cc1C#N)CCCCC2 returned UCH37 inh -92.6, Vif TR-FRET -0.5%, E coli growth 0.696, RanGTP-Imp inh 25.7* and HNF4A DNA FP 2.8.
For CC(C)N(C(=O)c1ccc2nc(-c3ccccc3)c(-c3ccccc3)nc2c1)C(C)C the results were UCH37 inh -54.8, Vif TR-FRET 13.3%, E coli growth 0.678, RanGTP-Imp inh 6.2 and HNF4A DNA FP 0.9.

Assay outcomes from PubChem BioAssay.
